Screens (PubChem BioAssay)
Vif A3G – HIV-1 Vif–A3G interaction blockers – biochemical, TR-FRET, GST-Vif 1-94, biotin-A3G peptide, dose response retest, primary screen (AID 1117319). TR-FRET GST-Vif / biotin-A3G peptide binding; higher % means a stronger effect; test concentration not given here; strong numbers were not always called active. one-dose inhibition, %; IC50 in µM for titrated hits. 260,000 compounds, 0.57% hits;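 active = above the screen mean plus three standard deviations and confirmed in dose response; inconclusive = results disagree or hit not tested in dose response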;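 also: Vif residues 1-94 fused to GST binding biotinylated APOBEC3G peptide 110-148; 0% = full assay without inhibitor and 100% = GST in place of GST-Vif; retest series ran down from 100 µM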
MLL AF4-AF9 inh – blocks AF4 peptide binding to human AF9; P42568; AlphaScreen, biotin-AF4 peptide binding to FLAG-AF9; inhibition, % at 10 µM; 350,000 compounds, 0.47% hits;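 active = every replicate reaching a set inhibition limit, whatever the replicate mean, cut at about 25% in these data; inconclusive = mean inhibition reaches that limit but some replicates miss it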;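 also: 0% = plate neutral control median and 100% = total signal loss; the record names both 10 and 1 µM as test concentration; the first replicate is given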
T cruzi inh – blocks replication of Trypanosoma cruzi; T. cruzi beta-gal in NIH3T3, luminescence, 90 h; inhibition, % (test concentration not listed); 300,000 compounds, 1.4% hits;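 active = mean inhibition across valid replicates above about 55%, limit read from the data; inconclusive = mean below that limit but half or more replicates reach it; inactive = mean below it, under half of replicates reach it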;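 also: signal also drops with host cell toxicity which is not excluded here; 0% = plate median of DMSO wells and 100% = zero luminescence signal; higher percent means less beta-gal luminescence so fewer parasites; stock transfer was 50 nL into about 50 µL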
Beta cell apopt – blocks beta cell apoptosis; INS-1E cytokine-induced death, ATP luminescence, 48 h; percent of positive-control rescue, neutral wells zero; protection from apoptosis, % (test concentration not listed); 300,000 compounds, 0.8% hits; AID 435005;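 active = all replicates at 75% or more, or half of them and the mean; inconclusive = half reach 75% but not the mean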;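 also: 0% = cytokine-treated negative control wells and 100% = positive control rescue; higher means more ATP so stronger rescue from cytokine killing; wells of about 40 µL received 100 nL stock; the first replicate is given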
RanGTP-Impb inh – disruptors of Ran-importin-beta complex formation – biochemical, FRET, CFP-Ran, YFP-importin-beta, homogeneous, primary screen; AID 2216; cell-free CFP-Ran/YFP-importin-beta FRET ratio; inhibition, % (concentration not given with the values); 300,000 compounds, 1.1% hits;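 active = most replicates above 15%; inconclusive = exactly half above 15%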;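 also: 0% = DMSO wells and 100% = Ran loaded with GDP instead of GTP; wells of about 40 µL received 100 nL stock; the first replicate is given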
Bfl-1 A1 inh – inhibitors of the anti-apoptotic protein A1, read as caspase activation. AID 2462. caspase activation, % (test concentration not listed). 330,000 compounds, 0.066% hits. MEF A1-2A-BIM cells, Caspase-Glo 3/7 luminescence, 3 h; percent of clofoctol response, vehicle zero;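 active = over half of replicate activation scores above 10%, or exactly half above 10 with the replicate mean above 10; inconclusive = replicate mean below 10 yet half the replicates above 10; inactive = over half of replicates below 10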;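 also: wells of about 30 µL received 50 nL stock; many hits fall short of the cut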
Calb FLC – affects C. albicans growth with fluconazole; C. albicans CaCi-2 (fluconazole-resistant clinical isolate) + fluconazole, Alamar Blue growth, 48 h; growth inhibition, % (concentration not given with the values); 300,000 compounds, 0.57% hits;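 active = most replicates above 75%; inconclusive = exactly half above 75%; inactive = most below 75%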;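 also: all wells also contain fluconazole at 8 µg/ml as a sub-toxic cotreatment; 0% = median of DMSO wells and 100% = median of geldanamycin control wells; wells of about 8 µL received 7.5 nL stock; the first replicate is given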
LANA-H2B inh – blocks KSHV LANA binding to histone H2A/H2B. Q9QR71. cell-free LANA-H2A/H2B peptide, fluorescence polarization. inhibition, % (no concentration beside the values). 320,000 compounds, 0.6% hits. AID 2629; in the data active = inhibition mostly above about 10%, no sharp cut-off; inactive = mostly below about 6.7%;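 also: stock transfer was 7.5 nL into about 10 µL; 0% = median of vehicle wells and 100% = median of positive control wells; one replicate is shown; the record names a cut of 25% in any replicate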
Target sequence (Q9QR71 whole entry, looked up): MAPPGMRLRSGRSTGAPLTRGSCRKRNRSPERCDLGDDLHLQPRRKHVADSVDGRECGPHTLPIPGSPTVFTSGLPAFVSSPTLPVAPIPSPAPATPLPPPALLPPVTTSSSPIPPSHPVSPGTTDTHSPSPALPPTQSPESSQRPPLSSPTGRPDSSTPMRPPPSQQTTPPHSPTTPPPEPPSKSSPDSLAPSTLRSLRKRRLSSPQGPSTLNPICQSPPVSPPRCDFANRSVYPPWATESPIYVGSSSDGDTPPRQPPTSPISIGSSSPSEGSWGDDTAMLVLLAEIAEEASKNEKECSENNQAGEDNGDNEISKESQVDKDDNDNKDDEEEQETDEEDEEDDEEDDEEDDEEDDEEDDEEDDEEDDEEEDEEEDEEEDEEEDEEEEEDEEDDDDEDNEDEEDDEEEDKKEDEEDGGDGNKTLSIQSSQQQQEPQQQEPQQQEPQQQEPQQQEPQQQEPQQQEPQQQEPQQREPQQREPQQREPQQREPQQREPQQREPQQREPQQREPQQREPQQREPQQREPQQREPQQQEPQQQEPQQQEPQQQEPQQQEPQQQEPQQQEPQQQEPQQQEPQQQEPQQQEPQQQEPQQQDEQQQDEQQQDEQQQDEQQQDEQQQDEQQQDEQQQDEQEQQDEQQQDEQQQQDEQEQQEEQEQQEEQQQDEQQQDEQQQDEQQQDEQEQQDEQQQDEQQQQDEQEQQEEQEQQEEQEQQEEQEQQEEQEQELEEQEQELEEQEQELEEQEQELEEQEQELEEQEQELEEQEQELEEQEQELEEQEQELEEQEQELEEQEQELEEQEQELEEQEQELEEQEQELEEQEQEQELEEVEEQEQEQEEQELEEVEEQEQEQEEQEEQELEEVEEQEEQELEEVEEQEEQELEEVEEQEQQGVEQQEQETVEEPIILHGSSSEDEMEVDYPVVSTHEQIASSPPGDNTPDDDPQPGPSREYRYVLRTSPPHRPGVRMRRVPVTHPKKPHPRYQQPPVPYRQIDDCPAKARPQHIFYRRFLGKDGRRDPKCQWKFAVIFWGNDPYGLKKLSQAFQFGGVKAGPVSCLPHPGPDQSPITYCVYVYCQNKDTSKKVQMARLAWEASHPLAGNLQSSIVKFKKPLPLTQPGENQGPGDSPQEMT
* marks the source's active call; other numbers are inactive results; u = inconclusive; x = no result given. Outcome played no part in choosing rows. About 4.3% of those tested had a hit in this group.

Sequence of screens – Vif A3G	MLL AF4-AF9 inh	T cruzi inh	Beta cell apopt	RanGTP-Impb inh	Bfl-1 A1 inh	Calb FLC	LANA-H2B inh
1: C=CCNC(=O)C1CC2c3ccccc3C1c1ccccc12 (stereo not given)
    x	-1.0	-9	-1	-1.4	-0.8	15	-2.0
2: CCCCCCn1c(N2CCC(C(N)=O)CC2)nc2c1c(=O)[nH]c(=O)n2C
    1%	x	14	x	-2.5	0.3	-6	2.5
3: CCOC(=O)CNC(=O)c1ccccc1Br
    3%	x	-7	x	-1.5	-0.1	0	-3.8
4: Cc1ccc2c(c1)C1NC(=S)NC(C)(O2)C1C(=O)Nc1ccc(Cl)cc1 (stereo not given)
    -1%	x	13	3	-1.6	0.3	-21	0.2
5: CCC1(C)Cc2ccccc2-c2nc[nH]c(=O)c21 (stereo not given)
    -3%	0.7	1	x	-2.0	0.6	-6	9.4
6: O=C(COC(=O)CCc1ccc(S(=O)(=O)N2CCCCC2)cc1)Nc1ccc2c(c1)OCO2
    6%	x	2	2	2.0	0.3	5	-0.1
7: CCOC(=O)c1ccc(-n2c(C)nc3c(cnn3-c3ccc(Cl)cc3)c2=O)cc1
    -5%	x	-6	6	4.3	-0.4	13	-0.4
8: COc1cc(/C=N/NC(=O)[C@H](Cc2c[nH]c3ccccc23)NC(=O)OCC(C)C)cc([N+](=O)[O-])c1O
    x	4.5	6	-6	-0.2	0.8	13	-7.2
9: COc1ccc(C2(C)NC(=O)N(CC(=O)NC3CCCC3)C2=O)cc1OC (stereo not given)
    -4%	-7.1	x	-1	x	0.0	x	-1.0
10: O=S(=O)(NNc1ccc(F)cc1F)c1cccc(Cl)c1
    x	1.7	-2	-6	1.7	0.0	-18	3.1
11: c1ccc(CSc2nnc(SCc3ccccn3)s2)nc1
    2%	x	5	-10	5.1	-0.3	-18	-4.3
12: CCOC(=O)CNC(=O)c1sc(NC(=O)c2ccccc2F)nc1C
    -5%	6.1	-33	7	-5.1	-7.0	15	0.2
13: CCCNC(=O)c1cc(OC)c(OC)cc1[N+](=O)[O-]
    0%	-26	-15	-14	1.9	0.6	-29	1.6
14: NC(=O)C1CCCN(C(=S)NCc2ccc3c(c2)OCO3)C1 (stereo not given)
    x	-4.0	-11	1	2.9	0.1	12	-5.9
15: O=C(N1CCN(c2ccc(F)cc2)CC1)C1(c2cccs2)CCOCC1
    x	x	-27	-1	4.9	-1.6	1	-1.3
16: CC1C(=O)C(C)C(c2cccs2)NC1c1cccs1 (stereo not given)
    2%	x	17	1	2.6	-0.5	-7	-0.7
17: O=C1CSC(c2ccccn2)N1c1ccc(F)cc1F (stereo not given)
    1%	0.3	-3	0	4.6	0.5	-1	1.7
18: CC1CCCC(NC(=O)CN2C(=O)COc3ccccc32)C1C (stereo not given)
    x	-5.5	-2	1	3.3	0.2	-10	5.1
19: CN1C(=O)N(C)C2(c3ccccc3)N(C(C)(C)C)C(=O)NC12c1ccccc1 (stereo not given)
    -5%	-0.5	12	-5	1.9	0.6	-1	3.6
20: CN(Cc1ccccc1)C(=O)c1oc(=O)c2ccccc2c1-c1ccccc1
    x	x	16	-9	u	-0.1	1	0.7
21: Cc1ccc(NC2=CC(=O)C(=O)c3ccccc32)c(C)c1
    x	1.5	x	101*	x	0.2	x	1.9
22: Cn1c(C(=O)N2CCC(C(N)=O)CC2)cc2cc(Cl)ccc21
    x	0.4	-1	-2	7.5	1.2	-2	11
23: O=C(COc1ccc(S(=O)(=O)Nc2cccc(C(F)(F)F)c2)cc1)N1CCOCC1
    x	-1.5	-9	x	-1.6	-0.1	3	-1.7
24: Cn1c(=O)c2sccc2n(CC(=O)NCCC2=CCCCC2)c1=O
    1%	2.6	-9	-3	-3.0	0.0	-10	-2.9
25: CS(=O)c1ccc(-n2c(=O)n(Cc3ccccc3)c(=O)c3[nH]cnc32)cc1 (stereo not given)
    x	-1.1	-8	-2	-0.3	0.2	-1	-0.3
26: COc1ccc(C(=O)NC(=S)NC2CCSC2=O)cc1 (stereo not given)
    -1%	x	-13	-13	-4.3	0.2	-3	-0.5
27: COc1ccc2cc(CN(CC3COCCO3)S(=O)(=O)c3ccc(Cl)cc3)c(=O)[nH]c2c1 (stereo not given)
    -11%	x	8	0	2.4	-0.1	2	-2.0
28: CCCCN1C(C(=O)Nc2ncccn2)=C(O)c2ccccc2S1(=O)=O
    -3%	-2.9	-5	-7	-0.8	-2.6	-12	-2.0
29: O=C(CN1C(=O)NC2(CCCCCC2)C1=O)Nc1ccc2c(c1)CCC2
    12%	1.5	13	3	-2.7	0.0	-8	-3.1
30: N#Cc1ccccc1OCCCNC1CCCC1
    x	0.0	-23	2	-4.0	-0.3	-7	0.0

An excerpt of these results, in markdown:
| No. | structure | Vif A3G | MLL AF4-AF9 inh | T cruzi inh | Beta cell apopt | RanGTP-Impb inh | Bfl-1 A1 inh | Calb FLC | LANA-H2B inh |
| --- | --- | --- | --- | --- | --- | --- | --- | --- | --- |
| 15 | O=C(N1CCN(c2ccc(F)cc2)CC1)C1(c2cccs2)CCOCC1 | x | x | -27 | -1 | 4.9 | -1.6 | 1 | -1.3 |
| 26 | COc1ccc(C(=O)NC(=S)NC2CCSC2=O)cc1 (stereo not given) | -1% | x | -13 | -13 | -4.3 | 0.2 | -3 | -0.5 |
| 11 | c1ccc(CSc2nnc(SCc3ccccn3)s2)nc1 | 2% | x | 5 | -10 | 5.1 | -0.3 | -18 | -4.3 |

More entries:
Sequence of screens – Vif A3G	MLL AF4-AF9 inh	T cruzi inh	Beta cell apopt	RanGTP-Impb inh	Bfl-1 A1 inh	Calb FLC	LANA-H2B inh
31: Cc1no[n+]([O-])c1COc1cccc(/C=N/Nc2nncn2N)c1
    14%	-27	-22	6	u	0.2	-5	1.8
32: NC(=O)c1nsc(C(=O)N(CC(=O)NCc2ccc3c(c2)OCO3)C2CCCC2)c1N
    2%	x	8	2	3.1	0.4	-1	-4.9
33: Cc1onc(-c2ccccc2Cl)c1C(=O)Nc1nnc(-c2ccc(Cl)cc2Cl)s1
    15%	6.4	-9	4	u	0.2	0	9.1
34: CCC(CO)Oc1cc(NC(=O)Cc2ccccc2)c2ncn(C(C)C)c2c1 (stereo not given)
    x	-8.8	x	-14	x	0.2	x	-1.3
35: S=c1[nH]nc(-c2cccnc2)n1/N=C/c1ccco1
    4%	-3.6	-10	2	0.7	0.9	-5	-2.0
36: Cc1ccc(NC(=O)CCl)c(C)c1
    x	-0.9	4	-13	3.3	-0.2	70	-0.2
37: CCCn1nc(NC(=O)CC(C)C)c2cc3cccc(C)c3nc21
    -1%	-3.3	-5	1	20*	-0.2	3	3.9
38: COc1ccc(CN2CCNC(=O)C2CC(=O)N(C)Cc2ccccn2)cc1OC (stereo not given)
    x	1.9	-18	0	5.5	0.2	-6	-0.3
39: CCn1c2ccccc2c2cc(NC(=O)C/C(C)=N/NC(=O)c3ccccc3N)ccc21
    2%	x	4	-5	-6.4	0.9	1	-0.3
40: O=C(Nc1ccccn1)c1ccc(S(=O)(=O)c2ccc(Cl)cc2)cc1
    -5%	0.3	13	1	-2.7	-0.2	-1	1.8
41: CCN(CC)C(=O)C1CCCN(c2ccc([N+](=O)[O-])cc2[N+](=O)[O-])C1 (stereo not given)
    x	2.4	4	-3	-0.6	0.7	2	2.9
42: CC(=O)Nc1ccc(NC(=O)c2ccc(-n3c(C)ccc3C)cc2)cc1
    5%	x	-16	-3	-1.5	-0.5	-3	-1.1
43: CC[C@H](C)[C@@H](CNC)NC[C@@H](Cc1ccc(O)cc1)NCC(C)(C)C
    x	4.2	4	0	-0.8	-0.3	-15	-3.3
44: CC(C(=O)Nc1ccc(S(=O)(=O)N2CCOCC2)cc1)N1CCN(c2ccccn2)CC1 (stereo not given)
    22%	-8.4	-1	-12	-2.8	0.9	-3	-2.7
45: COc1ccc(C(=O)NCCNc2ccc([N+](=O)[O-])cc2)cc1
    -13%	4.8	9	-4	-1.7	1.0	3	0.7
46: CCOc1cc(C2NC(=O)CCC2[N+](=O)[O-])cc(Br)c1OCC (stereo not given)
    -3%	-1.0	-13	-3	-0.7	0.3	0	0.5
47: COC(=O)c1ccc(COC(=O)CNC(=O)CNC(=O)c2ccc(OC)cc2)cc1
    x	0.8	13	4	0.3	0.0	-1	-0.5
48: CCCCN1C2CCCC1CC(NC(=O)c1cccc(OC)c1)C2 (stereo not given)
    x	-3.4	2	3	-2.8	-0.1	-13	0.5
49: CCCn1c(=O)n(C)c(=O)c2c(SC(C)C(=O)NCC3CCCO3)nc(CC(C)C)nc21 (stereo not given)
    0%	-36	9	2	2.4	1.0	1	1.7
50: COc1cc(NC(=O)COc2ccc(F)cc2)nc(OC)n1
    -1%	1.1	8	x	0.2	-1.2	0	5.5
51: Cc1ccc(NS(=O)(=O)c2ccc3c(c2)N(C)CCO3)cc1
    x	6.2	-25	15	9.5	-2.1	-1	-3.6
52: COc1ccc(/C(C)=N/Nc2nc3ccccc3nc2C)cc1
    -7%	-13	-21	7	5.2	-0.2	2	-0.8
53: CCN(CC(=O)Nc1c(F)cccc1F)C(=O)c1ccc(C2SCCS2)cc1
    x	0.6	-8	x	-2.0	-0.2	5	-3.4
54: CN(C(=O)c1ccc2nccnc2c1)C1CCCCC1
    -16%	-2.7	-7	-15	3.0	-1.1	-5	4.1
55: Cc1cc(C)c2c(n1)nn1c(NCCCN(C)C)cc(C)nc21
    1%	x	-3	2	30*	0.3	-6	-1.7
56: COc1ccc(CNC(=O)C2=C(C)C(=O)OC23CCC(C)CC3)cc1 (stereo not given)
    14%	-1.0	-2	1	7.0	0.2	4	0.8

Structures listed so far shown as hits in RanGTP-Impb inh.
#	compound	Vif A3G	MLL AF4-AF9 inh	RanGTP-Impb inh	LANA-H2B inh
37	CCCn1nc(NC(=O)CC(C)C)c2cc3cccc(C)c3nc21	-1%	-3.3	20*	3.9
55	Cc1cc(C)c2c(n1)nn1c(NCCCN(C)C)cc(C)nc21	1%	x	30*	-1.7
